Compound activity (PubChem)
Arbovirus inh: antivirals against arbovirus infection, primary screen, cell-based, full library, 10K replicate subset | arbovirus infection cell-based antiviral screen | inhibition, % at 10 µM | 200,000 compounds, 0.37% hits;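 active means inhibition from about 30%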;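 further: bluetongue infection of BSR cells; cell survival read as ATP light after 72 h; 0% = infected wells without compound and 100% = uninfected wells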
Mtb bLac sens: beta-lactam sensitization of Mtb H37Rv, H37Rv; AID 434955, 2010; inhibition, % at 25 µM; 330,000 compounds, 0.27% hits; M. tuberculosis H37Rv growth with meropenem, percent inhibition; hits of this screen are not shown here;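 active means about 74% or more and at least 40 points above the plate without the antibiotic, then above 30% in a dose series; inconclusive means first-round hits that could not be retested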;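 further: growth measured after seven days incubation then overnight dye step; 0% = bacteria only wells and 100% = bacteria with antibiotic; twin plates without the antibiotic show which effects depend on it; some results filed as inactive read as strong as hits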
Mtb H37Rv: M. tuberculosis H37Rv growth inhibitors, H37Rv strain (AID 1626). M. tuberculosis H37Rv growth inhibition; higher % means a stronger effect. one-dose inhibition, % at 10 µM; IC50 in µM for titrated hits. 220,000 compounds, 0.95% hits;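 active means confirmed in a dose series; inconclusive means inhibition above 80% but not taken into the dose series; inactive means below 80% or under 30% at every dose of the series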;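 further: bacteria incubated seven days before Alamar blue readout; 0% = bacteria only wells and 100% = bacteria with antibiotic wells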
RecA splice inh: Mtb RecA intein splicing inhibitors, primary screen, biochemical, fluorescence, HTS | cell-free RecA intein splicing | inhibition, %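 (about 9 µM by stock and volumes)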 | Protein RecA (Mycobacterium tuberculosis (strain ATCC 25618 / H37Rv)), P9WHJ3 | 290,000 compounds, 0.75% hits; in the data active means inhibition above about 30%; inconclusive means no clear call, values can overlap the other calls;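 further: 0% = vehicle wells and 100% = reference inhibitor control wells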
Target sequence (P9WHJ3 whole entry, looked up, canonical isoform): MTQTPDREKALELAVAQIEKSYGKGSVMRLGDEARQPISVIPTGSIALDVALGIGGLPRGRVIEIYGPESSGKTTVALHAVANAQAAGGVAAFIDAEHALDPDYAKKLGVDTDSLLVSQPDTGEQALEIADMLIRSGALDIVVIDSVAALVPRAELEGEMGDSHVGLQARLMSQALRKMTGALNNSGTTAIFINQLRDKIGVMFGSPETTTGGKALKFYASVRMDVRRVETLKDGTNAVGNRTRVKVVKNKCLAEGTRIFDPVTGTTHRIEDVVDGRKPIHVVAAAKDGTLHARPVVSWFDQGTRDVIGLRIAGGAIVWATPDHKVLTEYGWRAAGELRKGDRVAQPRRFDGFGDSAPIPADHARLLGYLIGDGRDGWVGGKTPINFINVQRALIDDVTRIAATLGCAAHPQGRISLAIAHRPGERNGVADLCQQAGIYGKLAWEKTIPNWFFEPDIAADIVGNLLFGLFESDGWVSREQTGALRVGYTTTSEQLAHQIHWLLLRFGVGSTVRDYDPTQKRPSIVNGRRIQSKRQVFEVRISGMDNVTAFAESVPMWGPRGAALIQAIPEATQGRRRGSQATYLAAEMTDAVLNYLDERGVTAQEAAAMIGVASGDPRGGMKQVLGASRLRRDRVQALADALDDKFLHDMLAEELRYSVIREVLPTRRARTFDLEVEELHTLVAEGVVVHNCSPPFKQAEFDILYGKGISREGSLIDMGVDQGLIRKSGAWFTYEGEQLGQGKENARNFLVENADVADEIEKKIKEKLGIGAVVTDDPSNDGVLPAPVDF
YopH PTP inh: YopH tyrosine phosphatase inhibitors, primary screen, biochemical, fluorescence Ex485/Em525; inhibition, %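 (about 10 µM by stock and volumes)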; 140,000 compounds, 0.16% hits; YopH tyrosine phosphatase [Yersinia enterocolitica];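 active means inhibition of 50% or more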;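 further: controls were vehicle for no effect and minimum signal wells for full effect; inactives centre near -20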
Arbovirus inh repeat: also measured in Arbovirus inh; calls as there; inhibition, %; measured here: 10K subset replicate screen; many hits read low in the repeat;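 first of two repeat runs on a subset; 0% = infected and 100% = uninfected wells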
Starred values were filed as active, the others as inactive; u = inconclusive; x = not tested or not shown. This is a subset. The share of hits here may be higher or lower than overall.

SMILES	Arbovirus inh	Mtb bLac sens	Mtb H37Rv	RecA splice inh	YopH PTP inh	others
Cc1ccccc1-n1nc2c(c1NC(=O)C(C)(C)C)CS(=O)(=O)C2	x	-5.6	x	0.0	x
S=C(Nc1cccnc1)Nc1ccccn1	x	-4.5	x	1.6	x
CCC(c1nnc(SCC(=O)Nc2ccc(S(N)(=O)=O)cc2)n1Cc1ccccc1)N(C)C (stereo not given)	3.0	-4.9	3.5%	-1.4	x
S=c1[nH]nc(-c2cc(-c3ccccc3)n[nH]2)n1/N=C/c1ccc(Cl)c(Cl)c1	x	-0.6	-4.0%	5.6	x
Cn1c(SCc2nc(-c3ccc(Cl)cc3)no2)nnc1-c1ccco1	11.5	-0.6	3.0%	0.2	-49.6	Arbovirus inh repeat=8.0
CCCN(CCO)Cc1cccc(Br)c1	3.3	-3.1	8.0%	-3.7	-1.4
CCN(CC)CCOC(=O)C1(c2ccccc2)CCOCC1	3.0	-6.0	0.4%	0.5	-29.9
Cc1nnc(NC(=O)C(C)Sc2nncn2C)s1 (stereo not given)	7.0	3.4	3.1%	5.9	-15.3	Arbovirus inh repeat=-0.4
O=c1ccc2cc(S(=O)(=O)N3CCN(c4cc(Cl)ccc4Cl)CC3)ccc2o1	2.8	-8.1	-3.3%	9.9	7.6
CCOc1ccc(OCC)c(NC(=O)Cn2cccc2)c1	-2.8	x	-2.9%	-0.2	-42.4

Next section; it opens with the 3 that closed the last part.
SMILES	Arbovirus inh	Mtb bLac sens	Mtb H37Rv	RecA splice inh	YopH PTP inh	others
Cc1nnc(NC(=O)C(C)Sc2nncn2C)s1 (stereo not given)	7.0	3.4	3.1%	5.9	-15.3	Arbovirus inh repeat=-0.4
O=c1ccc2cc(S(=O)(=O)N3CCN(c4cc(Cl)ccc4Cl)CC3)ccc2o1	2.8	-8.1	-3.3%	9.9	7.6
CCOc1ccc(OCC)c(NC(=O)Cn2cccc2)c1	-2.8	x	-2.9%	-0.2	-42.4
CC(NC(=O)C(c1ccccc1)c1ccccc1)c1ccccc1 (stereo not given)	x	2.6	x	-0.4	x
CCNc1nc(NCC)nc(N(C)N)n1	7.7	u	4.1%	-6.2	-32.9
COc1ccc(SCCCn2c(=O)c3c(ncn3C)n(C)c2=O)cc1	x	-2.2	x	0.9	x
Cc1ccc(C(=O)Nc2ccc(C(F)(F)F)n(C)c2=O)cc1	6.4	-3.6	-7.3%	-4.0	x
Cn1c(-c2ccc(F)cc2)cnc1SCC(=O)N1CCCc2ccccc21	10.2	3.1	6.0%	1.7	-13.8
CN(CCc1ccccc1)C1CCCN(C(=O)Cn2cccn2)C1 (stereo not given)	x	0.8	x	2.4	x
O=C(NCc1ccc(Cl)c(Cl)c1)c1ccco1	-7.6	-0.5	-4.2%	1.7	-11.3	Arbovirus inh repeat=4.1
N#CCSc1nnc(COc2cccc3ccccc23)n1-c1cccc(Cl)c1	5.5	3.3	-1.7%	-0.1	-36.9
NC(=O)COC(=O)c1ccc(-c2ccccc2)cc1	-0.6	10.5	-3.2%	15.0	x
C/C(N)=C(/C#N)C(=O)CSc1n[nH]c(-c2ccccc2Br)n1	0.7	7.0	-5.0%	3.3	-26.2	Arbovirus inh repeat=3.5
CCOC(=O)C1=C(c2ccccc2)OC(N)=C(C#N)C1c1ccc(Cl)s1 (stereo not given)	8.3	3.0	0.5%	2.7	8.7
CCn1ncc(CN2CCN(Cc3ccc(OC)c(C)c3C)C(CCO)C2)c1C (stereo not given)	-15.5	-8.2	3.6%	-0.6	x
O=C(CN1C(=O)C2C3C=CC(C3)C2C1=O)NCCC1=CCCCC1 (stereo not given)	9.5	-1.8	-4.6%	-20.4	-10.5
CCN1CCN(C(=O)c2ccccc2N(Cc2ccccc2)S(=O)(=O)c2ccc(OC)cc2)CC1	x	-7.7	-5.9%	0.6	x
COc1ccc(-c2csc(N(CCCN(C)C)C(=O)c3cccs3)n2)cc1	-17.1	7.2	1.8%	0.0	-39.7
Cc1nn(C(=O)c2cc3sccc3[nH]2)c(C)c1C	-2.6	2.2	3.6%	4.2	-27.8
CN(C)c1ccc(C(C(=O)NC2CCCC2)N(C(=O)c2ccco2)C2CC2)cc1 (stereo not given)	x	-2.2	x	-0.4	x
Cc1ccc(-c2[nH]ncc2C(=O)c2ccccc2C)c(O)c1	x	-2.4	x	2.7	x
COc1ccc(CNC(=O)C2CCCN(S(=O)(=O)c3cccc4nsnc34)C2)cc1 (stereo not given)	x	-0.9	x	-0.4	x
CCOCc1nc(C)c(Cl)c(NS(=O)(=O)c2ccc(N)cc2)n1	1.5	-2.0	-6.3%	0.3	-11.5

Overlap with the part before: 5 compounds, then new ones.
SMILES	Arbovirus inh	Mtb bLac sens	Mtb H37Rv	RecA splice inh	YopH PTP inh	others
Cc1nn(C(=O)c2cc3sccc3[nH]2)c(C)c1C	-2.6	2.2	3.6%	4.2	-27.8
CN(C)c1ccc(C(C(=O)NC2CCCC2)N(C(=O)c2ccco2)C2CC2)cc1 (stereo not given)	x	-2.2	x	-0.4	x
Cc1ccc(-c2[nH]ncc2C(=O)c2ccccc2C)c(O)c1	x	-2.4	x	2.7	x
COc1ccc(CNC(=O)C2CCCN(S(=O)(=O)c3cccc4nsnc34)C2)cc1 (stereo not given)	x	-0.9	x	-0.4	x
CCOCc1nc(C)c(Cl)c(NS(=O)(=O)c2ccc(N)cc2)n1	1.5	-2.0	-6.3%	0.3	-11.5
C=CCn1c(SCC(=O)Nc2c(C)cccc2C)nnc1-c1ccncc1	7.5	0.7	-9.7%	6.5	-24.0
CS(=O)(=O)c1cccc(NC(=O)c2ccc(Cl)c(Cl)c2)c1	-7.1	1.6	-0.7%	-0.8	x
CCOC(=O)C(/C=C(\C#N)C(=O)OCC)=C(/N)N1CCN(c2c(C)cccc2C)CC1	0.0	-12.0	-0.3%	-1.2	-16.3
Nc1cc(-c2ccc(Br)cc2)nn1S(=O)(=O)c1ccccc1	-9.1	-1.5	-7.1%	-0.1	-12.0
COc1ccc2oc(C(=O)OCC(=O)NC(C)c3ccccc3)c(C)c2c1 (stereo not given)	x	-0.8	x	-1.0	x
COc1ccc2c(C)cc(SCC(=O)N(C)C3CCS(=O)(=O)C3)nc2c1 (stereo not given)	13.1	-11.7	4.0%	-5.3	x
COC(=O)C(NNc1ccc(F)cc1)(NC(=O)c1ccccc1)C(F)(F)F (stereo not given)	-13.6	-6.5	5.2%	x	-11.7
CCOc1cc(N2CCOCC2)c(OCC)cc1NC(=O)c1ccc(NC(C)=O)cc1	3.3	-6.2	-4.7%	2.8	x
O=C(c1cc(-c2ccc(O)cc2)on1)N1CCOCC1	x	-3.3	x	1.5	x
CSCCC(NC(N)=O)C(=O)Nc1ccc(C)cc1 (stereo not given)	0.4	-6.5	-4.6%	-0.5	x
CC(C)c1ccc(C(=O)NC2=NCCS2)cc1	0.8	-0.2	4.6%	-2.4	-21.0
CSc1sc(C(=O)O)c2c1C(=O)CCC2	0.6	-3.4	-12.7%	2.2	-25.4
COC(=O)CCC(=O)Nc1cc(OC)c(OC)cc1Cc1nccc2cc(OC)c(OC)cc12	x	-10.0	x	3.4	x
Cc1ccc(NC(=O)CN2C(=O)S/C(=C/c3ccc(-c4cc(C(=O)O)ccc4C)o3)C2=O)cc1C	-34.8	71.4	-7.0%	-89.4	5.2
O=C(O)c1cccc(NC(=S)N/N=C/c2ccccc2OCc2ccc(Br)cc2)c1	6.3	7.8	0.7%	16.1	x
COc1ccc(-c2cc(=O)oc3cc(OC(C)C(=O)NC4CC4)ccc23)cc1 (stereo not given)	x	0.8	x	-1.4	x
CCOC(=O)c1cc2sccc2n1CC(=O)N1CCN(C(=O)c2ccco2)CC1	7.4	2.9	-2.2%	-0.5	-39.7
CN(C)c1c([N+](=O)[O-])ncn1C	8.8	-3.8	-6.3%	4.7	-10.0
CCN1CCN(Cc2ccc(NC(=O)c3cc(NC(=O)c4cncc(-c5ccc(C#N)cc5)c4)cc(OC)c3)cc2C(F)(F)F)CC1	x	99.5	4.55µM*	4.7	x
CC1CC(C)CN(CC(O)COCc2ccccc2F)C1 (stereo not given)	x	1.3	x	-9.1	x
O=C(Cc1ccccc1)N1CCN(Cc2ccc(F)cc2)CC1	x	-0.9	x	0.5	x
O=C(CSc1nnc(C2CC2)n1Cc1ccccc1)NCc1ccccc1	6.0	0.9	3.0%	0.7	-40.8
CC(NC(=O)c1cc(=O)[nH]c2ccccc12)c1ccc(F)cc1F (stereo not given)	x	4.3	x	-1.7	x
O=C1CCc2cc(S(=O)(=O)N3CCN(c4ccc(F)cc4)CC3)cc3c2N1CC3	x	-10.9	x	-1.1	x
COc1ccc(N2C(=O)CC(Cc3ccccc3OC)C2=O)cc1 (stereo not given)	x	-12.0	x	1.1	x
O=c1cc(Nc2cccc(Br)c2)[nH]c(=O)[nH]1	11.9	0.0	-6.1%	1.6	x
Cc1c(Cl)cccc1NC(=S)NC(=O)CCN1C(=O)c2ccccc2C1=O	-0.7	-6.6	-2.8%	0.7	-31.8
O=C(CNS(=O)(=O)c1ccc(Br)s1)Nc1ccc2c(c1)OCCO2	0.0	9.8	0.2%	0.5	-38.1
CCc1nc(Nc2ccc(OC)cc2OC)c2oc3ccccc3c2n1	x	-1.8	x	-2.4	x
CC(C)C(=O)NC(=S)Nc1sc2c(c1C(N)=O)CCCC2	8.8	1.8	1.4%	-0.6	-40.5
CC(C)Cc1nc2oc3c(NCc4cccnc4)ncnc3c2c2c1CCC2	3.9	-6.5	-2.1%	-1.8	-37.4
CN(C(=O)CC1C(=O)NCCN1Cc1c(F)cccc1Cl)C1CCOCC1 (stereo not given)	x	-1.7	x	-0.6	x
O=[N+]([O-])c1cccc(CSc2nnc3ccccn23)c1	2.3	19.7	3.8%	-1.2	x
S=c1[nH]nc(Cn2cnc3ccccc32)n1-c1ccccc1Cl	x	-13.7	-15.1%	-0.8	x
CC1CCN(CCCOc2ccc(Br)cc2Cl)CC1	-22.8	-13.8	1.4%	-2.3	x
CC(C)CCn1c(N2CCc3ccccc3C2)nc2c1c(=O)[nH]c(=O)n2C	-6.0	0.4	5.6%	-0.1	x
COCCOCCn1c(CCCO)nc2ccccc21	2.0	-3.6	-5.6%	-5.8	-21.9
Cc1cc(S(=O)(=O)N2CCCc3ccccc32)ccc1-n1cnnn1	x	-5.9	x	1.5	x
Cc1ccc(/C=N/NC(=O)C(C)NC(=O)c2ccccc2)cc1 (stereo not given)	1.6	4.6	6.5%	-2.3	x
O=C1CC(c2ccc(F)cc2)CC(O)=C1C1NCCc2ccccc21 (stereo not given)	2.5	3.0	0.6%	-0.7	-34.9
CC(=O)Nc1ccc(Cc2ccc3[nH]c(=O)cc(C)c3c2)cc1	x	-0.8	-0.1%	2.2	x
COc1ccc(OCC(=O)NCCc2ccc(S(N)(=O)=O)cc2)cc1	-3.1	2.1	-0.4%	0.3	-4.9
CCOC(=O)c1ccc(N2N=C(C)/C(=C/C=C/c3ccco3)C2=O)cc1	-6.3	-20.5	-5.7%	-1.5	-17.1
O=C(O)C1CC(=O)N(CCc2c[nH]c3ccccc23)C1 (stereo not given)	1.9	2.8	-0.4%	0.4	-6.2
Cc1ccc(-c2cc(Cc3ccc(N(C)C)cc3)c(=O)[nH]n2)cc1	x	0.8	-1.0%	2.1	x
COc1ccc(S(=O)(=O)N2CCC(NC(=O)c3cccc(F)c3)CC2)cc1	x	-3.7	x	-1.6	x
CC[N+](C)(CC)CC(O)COCC1COc2ccccc2O1 (stereo not given)	-2.0	5.2	-7.4%	0.6	-6.6
O=C(NCc1nnc2c(C(F)(F)F)cc(Cl)cn12)C1CCCC1	x	2.0	x	-2.1	x
Cc1ccc2nc(N=C(N)N)nc(C)c2c1	-9.2	-9.6	8.5%	0.3	x
COC(=O)c1ccc(NC(=O)CC2C(=O)N(c3ccc(C)cc3)C(=O)N2CC(C)C)cc1 (stereo not given)	18.1	-7.7	2.6%	1.0	-0.7
Next results follow.
SMILES	Arbovirus inh	Mtb bLac sens	Mtb H37Rv	RecA splice inh	YopH PTP inh	others
O=C(CNC(=S)NC(=O)c1ccc(Br)o1)c1ccccc1	-5.3	-5.9	6.7%	-1.8	-22.9
O=C(CSc1ccc(F)cc1)N1CCC(c2nc3ccccc3s2)CC1	11.8	6.3	x	5.3	-10.3
CCOc1cc2[nH]c(=O)n(Cc3ccc(C(=O)NCCCN4CCC(C)CC4)cc3)c(=O)c2cc1OCC	-12.5	-2.6	8.7%	-1.1	x
CCC(C(=O)c1ccc(O)cc1)c1ccccc1 (stereo not given)	6.4	11.8	5.9%	4.1	-33.7
Cc1cc(C)n(CCCNC(=O)C2CC(=O)N(Cc3ccccc3)C2)n1 (stereo not given)	x	-5.3	x	-0.4	x
